Screens from PubChem.
NPYLR7 agonist: activates Aedes aegypti NPYLR7 receptor. hit rate 0.15% among 270,000. HEK293T NPYLR7/Galpha15, GCaMP6s calcium fluorescence. activation, % at 10 µM; in the data active = activation above about 40%;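 note: 0% = vehicle and 100% = reference agonist at the receptor; some compounds past the cut are filed as inactive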
NPYLR7 agonist max-min: further read-out of NPYLR7 agonist, marked with its call; activation, %; measured here: Max-Min RFU normalised activation; some inactives read as strong as hits;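 span of the calcium signal over five minutes; 0% = vehicle and 100% = native peptide agonist; compound fluorescence can raise it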
Starred values were filed as active, the others as inactive.

SMILES	NPYLR7 agonist	NPYLR7 agonist max-min
CCCCn1c(CN(C)CCc2ccc(OC)c(OC)c2)cnc1S(=O)(=O)CC	0	0
CC(C)CNC(=O)c1c(C2CC2)nn(-c2ccc(F)cc2)c1C(C)C	6	17
CC1(C(=O)N2CCC(n3cc(C(C)(C)C)nn3)CC2)CCCO1 (stereo not given)	16	6
Cc1cc(O)c(CN2CCCCC2)c2c1C(=O)/C(=C/c1cc3ccccc3o1)O2	50*	45*
CCOCCSc1nc(N2CCOCC2)c2c(c1C#N)CC(C)(C)OC2	0	-3
O=C(Cn1c(-c2cccs2)n[nH]c1=S)NCC1(c2ccccc2)CC1	1	-2
Cc1ccc(Cl)cc1Nc1ncccc1C(=O)NCCCc1ccccc1	-9	-13
COc1ccc(S(=O)(=O)N2CCCC(C)C2)cc1N1CCN(C(=O)c2cc(F)cc(C(F)(F)F)c2)CC1 (stereo not given)	22	19
CCc1ccc(OCC(O)Cn2nc(N3CCOCC3)sc2=S)cc1 (stereo not given)	3	-4
CCN(C(C)c1ccncc1)S(=O)(=O)Cc1ccccc1F (stereo not given)	3	2
COc1ccc(C(C[N+](=O)[O-])n2nc(C)cc2C)cc1OC (stereo not given)	6	2
CCn1c(C2CCN(C(=O)C3Cc4cc(C)ccc4N3)CC2)nn(C)c1=O (stereo not given)	3	3
O=C(COc1cccc2ccccc12)NCCOc1ccc2nnc(-c3ccccc3)n2n1	-1	-1
O=C1CCCN1CC1CCCN(Cc2cc3ccccc3o2)C1 (stereo not given)	-7	-7
OCc1cn(CC2CCN(C3CCc4ccccc4C3)CC2)nn1 (stereo not given)	-1	-5
O=C(NCc1ccc(-c2ccn[nH]2)cc1)N1CCCCCCC1	-22	-24
O=C(CCN(CCc1ccccc1)c1nc(-c2ccc(Cl)cc2)nc2ccccc12)NCc1cccc(C(F)(F)F)c1	12	11
CC(C)NCC(O)CO (stereo not given)	-16	-27
CCOc1ccc(C(=O)Nc2cc(Cl)ccc2C)cc1[N+](=O)[O-]	14	9
O=C(CSc1nnc(Cc2cccs2)n1C1CC1)NC(=O)NC1CCCC1	-2	3
CC(CO)C1CCC2(C)CC3C(CO)CC(O)C3C(C)(O)CC=C12 (stereo not given)	-8	-16
CCN(CC)S(=O)(=O)c1ccc2oc(=S)[nH]c2c1	3	5
CCN1CCN(C(=O)c2csc(CN(C)C)n2)CC1(C)C	-4	-8
COc1cccc(OC)c1-c1cnnc(N2CCCC2c2nc3ccc(Cl)cc3[nH]2)n1 (stereo not given)	-5	-6
CN(C)c1ccc(/C=C2\SC(=S)N(c3cccc(F)c3)C2=O)cc1	-7	0
(further entries)
SMILES	NPYLR7 agonist	NPYLR7 agonist max-min
CC(NC(=O)CCn1cnc2sc3c(c2c1=O)CCCC3)c1ccc(F)c(F)c1 (stereo not given)	10	7
Cc1ccc(N=Cc2nc(-c3ccc(Cl)cc3)oc2O)c(Br)c1	-2	-7
COCCNC(=O)C(C1CCCC1)N1CCN(C(=O)CCc2ccccc2)CC1 (stereo not given)	-8	-7
Cc1ccccc1-c1ncc(CN2CCC3(CC2)C(=O)NCCCN3C)cn1	3	3
Cc1cc(C)cc(Oc2ccc(CN)cc2C)c1	-2	-9
CCC(CC)C(NCc1cccc2c1OCO2)c1ccccc1 (stereo not given)	15	11
CCOc1ccccc1NC(=O)CC1CCCCN1S(=O)(=O)c1ccc(C)cc1 (stereo not given)	4	-1
COc1cccc(-c2cc(C(=O)N3CCN(C(=O)COCc4ccccc4)CC3)c(C)n2-c2ccccc2)c1	17	24
CC1=NC2=C(C(=O)CC(C)(C)C2)C(c2ccc(OCc3ccc(F)cc3)cc2)C1C#N (stereo not given)	-1	0
CCOC(=O)N1CCN(C(c2ccc(Cl)cc2)c2c(O)cc(C)n(Cc3cccnc3)c2=O)CC1 (stereo not given)	14	7
O=C(CN1C(=O)C2C3C=CC(C3)C2C1=O)NNC(=O)c1cc(-c2ccccc2)n[nH]1 (stereo not given)	3	8
COc1ccc(CN(CCN2CCOCC2)CC(O)COc2ccc(Cl)cc2)cc1 (stereo not given)	-2	2
Cn1c(=O)c2c(nc(NC3CCCCC3)n2Cc2ccccc2)n(C)c1=O	-7	8
Cc1ccc(NC(=O)CSc2nncc(=O)[nH]2)cc1	3	3
Cc1cc(-n2c(C)cc(C(=O)CN3C(=O)C(=O)N(C4CCCC4)C3=O)c2C)no1	5	5
NC(=O)c1cc(-n2cnc3ccccc32)cs1	-6	-6
CC1CC(=O)c2c(O)ccc(F)c21 (stereo not given)	-1	-4
COc1cc(CNc2nn[nH]n2)ccc1OCc1ccc(F)cc1	-12	-15
CCN(Cc1nccn1Cc1ccc(Cl)cc1Cl)S(=O)(=O)c1ccc(OC)cc1	8	10
CNc1cccc(-c2c(C)noc2C)n1	0	-3
Cc1nc2nc(N)nn2c(C)c1CC(=O)NCCCCOc1ccccc1	3	5
CC(C)OCC(O)CN(Cc1ccccc1)Cc1cccs1 (stereo not given)	16	26
O=C(NC1(C(=O)O)CCCCC1)C1CCN(C(=O)N2CCCC2)CC1	0	12
CCC(CO)N(Cc1cccs1)C(=O)c1cc(C(C)C)[nH]n1 (stereo not given)	2	-1
C[C@@H]1[C@H]2C[C@@H](C[C@H]1NC(=O)N[C@@H](C)c1ccccc1)C2(C)C	-8	-15
The listing continues.
SMILES	NPYLR7 agonist	NPYLR7 agonist max-min
Cc1nc2c(ccc3nc(NC(=O)c4ccno4)sc32)s1	11	7
Cc1c2c(=O)n(-c3ccccc3)[nH]c2cc(=O)n1CC1CCCO1 (stereo not given)	10	2
CN(C)c1ccc(CNC(=O)C2CCCOC2c2ccccc2)cc1 (stereo not given)	-3	-4
CCCC(C)(C)C(=O)N1CCC1(C)C(=O)NS(=O)(=O)c1ccc(Br)cc1 (stereo not given)	-2	-5
Cc1ccc(NS(=O)(=O)c2cnn(-c3ccccc3)c2)c(C(=O)O)c1	11	8
CCCNC(=O)Nc1ccc(Oc2ncnc3cc(OC)c(OC)cc23)cc1Cl	-3	-11
O=C(NCCCN1CCOCC1)c1ccc(SC(F)(F)F)cc1	-7	-16
COc1ccccc1-c1cc(C(=O)Nc2ccccc2F)nc2cc(-c3ccccc3)nn12	16	28
COc1cn2c(cc1=O)C(=O)N(CCNC(=O)c1cccc(Cl)c1)CC2	6	2
N#CC(=Cc1ccccc1Br)c1ccccc1	2	1
CCOc1ccc(OCC)c(S(=O)(=O)N2CCN(c3cccc(C)c3C)CC2)c1	1	2
O=C(O)Cn1c(SCCOc2ccc3ccccc3c2)nc2ccccc21	-7	-10
CC(c1ccon1)N(C)S(=O)(=O)NCc1ccccc1 (stereo not given)	-2	-7
COC(=O)CC1C(=O)N(c2ccccc2)C(=S)N1CCCN1CCOCC1 (stereo not given)	-3	-4
CN(C)c1ccc(C2=NOC(CN(Cc3cccc(Cl)c3)CC(O)COc3ccccc3)C2)cc1 (stereo not given)	-3	1
COCc1ccc(C(=O)N2CCCC(CCC(=O)Nc3cc(OC)cc(OC)c3)C2)o1 (stereo not given)	10	5
Cc1noc2nc(C3CC3)cc(C(=O)NC34CC5CC(CC(C5)C3)C4)c12	4	1
O=C(NCCN1CCOC1=O)c1cn(Cc2ccc(F)cc2)nn1	4	3
COc1cc(C(C)=O)ccc1OCC(O)Cn1nc(C)c(Br)c1C (stereo not given)	9	8
Cc1ccc(Nc2ccc(NS(=O)(=O)c3ccc(-c4csc(C)n4)s3)cc2)nn1	16	15
Cc1cc(Nc2ccccc2)nc(N2CCN(C(=O)C(C)(C)C)CC2)n1	6	1
NS(=O)(=O)C=Cc1ccc(Cl)cc1	-1	-2
CCOC(=O)c1ccc(NC(=O)N2CCc3nc(Cc4cccc(F)c4)nc(N4CCOCC4)c3C2)cc1	9	18
CCCC(=O)NCCN1C(=O)SC(=Cc2ccc(C)cc2)C1=O	-1	-6
CC(=O)Nc1ccc(S(=O)(=O)N2CCC(C(=O)NC3CCCC[C@H]3NC(=O)c3ccccc3)CC2)cc1 (stereo not given in full)	1	7

Record cards (already shown).
`O=C(NCCCN1CCOCC1)c1ccc(SC(F)(F)F)cc1` across the screens: NPYLR7 agonist = -7; NPYLR7 agonist max-min = -16
`COC(=O)CC1C(=O)N(c2ccccc2)C(=S)N1CCCN1CCOCC1` (stereo not given) across the screens: NPYLR7 agonist = -3; NPYLR7 agonist max-min = -4
`CCN(C(C)c1ccncc1)S(=O)(=O)Cc1ccccc1F` (stereo not given) across the screens: NPYLR7 agonist = 3; NPYLR7 agonist max-min = 2

More results.
SMILES	NPYLR7 agonist	NPYLR7 agonist max-min
Cc1c(C(C)(C)C)sc(=NS(=O)(=O)c2ccc(Cl)cc2)n1C	4	2
Cc1ccc(F)cc1C(=O)N1CCC(n2cnc3cc(C(F)(F)F)ccc32)CC1	8	21
COc1cc(C(=O)NCc2cccnc2)ccc1Oc1nc(Cc2ccc(F)cc2)ns1	2	6
O=C(Cc1ccccc1)NNC(=O)c1cccn(Cc2ccc(F)cc2)c1=O	-11	-18
CCCNC(=O)N(Cc1nccn1Cc1ccc(F)cc1)CC(C)C	4	13
N#Cc1c2n(c3c(=O)n(CC(=O)c4ccc(Br)cc4)cnc13)CCCCC2	-1	19
CSC(C)C(=O)NCc1nc(C)cs1 (stereo not given)	-5	-3
O=C(Nc1cccc2c1CCCC2)c1ccccc1S(=O)(=O)N1CCCCC1	11	2
O=S(=O)(Cc1ccccc1)NC1CCOc2ccccc21 (stereo not given)	-2	-1
CCOC(=O)c1sc2nc(CNC(C)C)nc(NC(C)C)c2c1C	1	6
N#Cc1ccc(NC(=O)NCc2ccn(-c3ccccc3)n2)cc1	21	18
Cc1cc(C)c(-c2cc(C(=O)N(CCC(=O)NCCN(C)C)Cc3ccccc3)no2)c(C)c1	16	13
CC(=O)NCCNc1nc2cc(-c3ccccc3CO)sc2c(=O)n1C	6	3
CCOCCCNC(=O)c1cc(NC(=O)c2ccc([N+](=O)[O-])cc2)ccc1N1CCN(c2ccccc2OC)CC1	1	7
CCN(CC)CCN(C(=O)C1=COCCO1)c1nc2ccc(F)cc2s1	-7	-11
COc1cccc(CCNC(=O)c2cn(CCN3CCCCC3)nn2)c1OC	6	1
CC(C)CCC(C)NC(=O)CS(=O)(=O)Cc1ccc(C(C)C)cc1 (stereo not given)	-2	-3
COc1ccccc1NC(=O)N(Cc1nnc2n1CCCCC2)c1ccc(C)cc1	-3	-5
O=C(NCc1ccsc1)N1CCn2c(nnc2-c2ccccc2)C1	0	-2
O=C1/C(=C/c2ccc(O)cc2)C(N2CCOCC2)=NN1c1ccc([N+](=O)[O-])cc1	1	-4
Cc1c(N)cnn1-c1ccccc1F	5	5
CCOC(=O)c1c(C)nc2c(c1-c1ccccn1)C(O)CCC2 (stereo not given)	-2	-4
CCS(=O)(=O)Nc1ccc2c(c1)C(=O)N(C)c1cc(C)ccc1O2	6	1
Fc1ccc(-c2nc(N3CCN(c4ccccc4Cl)CC3)c3ccccc3n2)c(F)c1	3	-1
Cn1cc(S(=O)(=O)N2CCCCC2CCc2ccccc2)cn1 (stereo not given)	-1	-1

In another format: results already given.
SMILES: Cn1c(=O)c2c(nc(NC3CCCCC3)n2Cc2ccccc2)n(C)c1=O
  NPYLR7 agonist = -7
  NPYLR7 agonist max-min = 8
SMILES: Cc1ccc(NC(=O)CSc2nncc(=O)[nH]2)cc1
  NPYLR7 agonist = 3
  NPYLR7 agonist max-min = 3

Molecules from the list above with two or more sulfur atoms (nine):
SMILES	NPYLR7 agonist	NPYLR7 agonist max-min
O=C(Cn1c(-c2cccs2)n[nH]c1=S)NCC1(c2ccccc2)CC1	1	-2
CCc1ccc(OCC(O)Cn2nc(N3CCOCC3)sc2=S)cc1 (stereo not given)	3	-4
O=C(CSc1nnc(Cc2cccs2)n1C1CC1)NC(=O)NC1CCCC1	-2	3
CCN(CC)S(=O)(=O)c1ccc2oc(=S)[nH]c2c1	3	5
CN(C)c1ccc(/C=C2\SC(=S)N(c3cccc(F)c3)C2=O)cc1	-7	0
Cc1nc2c(ccc3nc(NC(=O)c4ccno4)sc32)s1	11	7
Cc1ccc(Nc2ccc(NS(=O)(=O)c3ccc(-c4csc(C)n4)s3)cc2)nn1	16	15
Cc1c(C(C)(C)C)sc(=NS(=O)(=O)c2ccc(Cl)cc2)n1C	4	2
CSC(C)C(=O)NCc1nc(C)cs1 (stereo not given)	-5	-3

(listing goes on)
SMILES	NPYLR7 agonist	NPYLR7 agonist max-min
Cc1cccc(NC(=O)C(C2CCCC2)N2CCN(C(=O)NC(C)(C)C)CC2)c1 (stereo not given)	5	10
COc1ccc(NC(=O)CCN(CCCN2CCOCC2)c2nc(C3CC3)nc3ccccc23)cc1	-1	8
CCOc1ccccc1NC(=O)N1CCN(c2nc(-c3cccc(C(F)(F)F)c3)nc(C)c2C)CC1	-5	-1
Cc1ccc(-c2cc(C(=O)N3CCCC3Cn3cccn3)n[nH]2)o1 (stereo not given)	0	-9
O=C(c1cc(-c2ccccc2)nc2cc(-c3ccccc3)nn12)N1CCN(c2ccccc2F)CC1	11	11
CCOC(=O)C1CCCN(C(=O)c2cccc(Nc3c(Oc4ccc5c(c4)CCC5)cnn(-c4ccc(Cl)c(Cl)c4)c3=O)c2)C1 (stereo not given)	12	20
C=CCn1c(-c2ccccc2)nnc1S(C)(=O)=O	7	5
CCOC(=O)C1=C(C)NC(=O)NC1c1ccc(O)c(OC)c1 (stereo not given)	-15	-23
C=CCOC(=O)c1sc(N2C(=O)C(O)=C(C(=O)c3cccs3)C2c2ccc(F)cc2)nc1C (stereo not given)	1	-1
O=C(CCc1ncc(-c2ccccc2F)o1)N1CCN(S(=O)(=O)c2ccccc2)CC1	2	6
CC(CNC(=O)OC(C)(C)C)N(C)Cc1cn2ccccc2n1 (stereo not given)	0	0
C=c1cc(C)n(CC(=O)Nc2cccc(Cl)c2C)c(=O)c1=C1N=C(c2ccc(OC)cc2)NO1	-2	-5
CC(C)NC(=S)N1CCCN(C)CC1	6	1
CCOC(=O)C(C)(C)Oc1cccc2c1S(=O)c1ccccc1-2 (stereo not given)	-7	-9
O=c1c2nnc3c(-c4ccccc4)cnn3c2ccn1CCc1ccccc1	0	-2
O=C(Nc1cccc(C(=O)O)c1)/C(=C\c1ccc2c(c1)OCO2)NC(=O)c1ccc(Br)o1	5	5
Cn1c(N2CCC(C(=O)Nc3ccccc3)CC2)c(C#N)c(=O)n(C)c1=O	2	-2

The list is partial; the hit share may differ from the screen's.
